Sa RN4220 lethal – growth inhibition of S. aureus RN4220, primary screen, OD600. 16 h. inhibition, % (concentration not given with the values). 0.33% of 330,000 active. AID 1259311, 2017;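 active = z-score of -3 or lower and OD600 up to 0.18 on both plates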;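 also: plate controls were untreated cells for no effect and reference antibiotic for full effect; stock transfer was 100 nL into about 80 µL; one replicate is shown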
BJeLR viability – MLPCN primary cell-based screen for lethality selective to Ras in HRASV12 cells | AID 1554, 2009 | 0.17% of 300,000 active | BJeLR (HRASV12) viability, CellTiter-Glo ATP luminescence, 48 h; reference of the scale not given here | inhibition, % (no concentration beside the values);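 active = replicate mean above 50%; inconclusive = above 50% but judged a plate artefact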;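 also: 50 nL library stock added to about 25 µL; numbers are from one replicate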
Sa ugtP lethal – growth inhibition of ugtP-null S. aureus, primary screen, RN4220 ugtP deletion, OD600 | 16 h; some inactives read as strong as hits | growth inhibition, % (no concentration beside the values) | 0.54% of 330,000 active;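 active = z-score under -3 and OD600 up to 0.15 on both plates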;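 also: plate controls were untreated wells for no effect and antibiotic for full effect; wells of about 80 µL received 100 nL stock; the first replicate is given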
PrP 5UTR inh – inhibition of PrP 5' UTR reporter expression | inhibition, % (test concentration not listed) | cell-based PrP 5' UTR mRNA reporter, plate reader | 0.35% of 340,000 active | AID 488862, 2010;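 active = every replicate at 50% or more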;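 also: 0 = median of the neutral control wells; tested in H4 reporter cells; numbers are from one replicate; inactives centre near -14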
Bead autofluor – counter-screen for toxin protease inhibitors: compound fluorescence; compound autofluorescence counterscreen, microsphere flow cytometry; stronger effect = higher value; 3.1% of 360,000 active; fluorescence intensity (test concentration not listed); AID 624483;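 active = at least 3 SD above the mean of all compounds, about 16000 in these data; inconclusive = too few beads counted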;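 also: 100 nL of 1 mM stock went into each well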
Mtb hypoxia inh – PubChem AID 1159583 | M. tuberculosis hypoxia-regulated fluorescent reporter, fluorescence | fluorescence inhibition, % (concentration not given with the values) | 0.1% of 300,000 active;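 active = 35 to 45% if threefold the growth effect, above 45% if 1.5-fold the growth effect; inactive = the rest, general growth blockers included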;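 also: wells of about 50 µL received 100 nL stock; 0% = vehicle wells and 100% = reference inhibitor wells; whole bacteria with a GFP reporter of the hypoxia response; strong numbers were not always called active; many hits fall short of the cut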
Mtb hypoxia inh growth – further read-out of Mtb hypoxia inh, marked with its call; growth inhibition, %; measured here: M. tuberculosis growth (absorbance);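 0% = vehicle and 100% = reference antibiotic; read after six days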
* = called active by the depositor; ? = inconclusive; . = not tested or not shown.

Below each SMILES – Sa RN4220 lethal, BJeLR viability, Sa ugtP lethal, PrP 5UTR inh, Bead autofluor, Mtb hypoxia inh, Mtb hypoxia inh growth
> COCCNC(=O)Cn1cc(C(=O)c2cccs2)c2ccccc21
  -15, -1, -8, -12, 3472, 8, 3
> O=C(NCCc1ccccc1)C1CCCN(c2nc3ccccc3s2)C1 (stereo not drawn)
  1.0, 3, -2, -27, 4906, 8, 5
> Cc1ccc(S(=O)(=O)N[C@@H](CC(C)C)C(=O)NCc2ccco2)cc1
  5.1, 0, -7, -12, 23101*, 8, 2
> COc1cccc(NC(=O)CN(C)C(=O)c2c(C)nn(-c3ccccc3)c2Cl)c1
  0.2, ., 0, -7, 3973, -7, -2
> COc1ccc(C(CNC(=O)CCC(=O)c2ccc(C)s2)N2CCOCC2)cc1 (stereo not drawn)
  1.4, ., -6, -12, 5680, -1, 4
> O=C(CN1CCC(n2cnc3cc(F)ccc32)CC1)Nc1ccccc1Br
  1.0, -2, -1, -9, 2043, -10, 0
> COc1ccc(Cl)cc1NC(=O)c1cccc(NC(=O)CCC(=O)O)c1
  5.8, 0, 12, -22, 2023, 19, 8
> CC(=O)c1cnc2cc(-c3ccc(C)cc3)nn2c1C
  3.1, 1, 8, -140, 9330, 3, 9
> N#CC1=C2SCC(O)(c3ccccc3)N2C(=O)CC1c1cccs1 (stereo not drawn)
  0.8, ., -9, 40, 16111, 4, 1
> COCCSc1nnc(NC(=O)COc2ccc3c(c2)OCO3)s1
  4.5, -7, 10, -29, 5480, -4, 6
> Cc1cc(C(=O)OCC(=O)N2CCOCC2)c2ccccc2n1
  0.4, -4, 0, -2, 4672, ., .
> CCn1c(=O)n(CC(=O)N2CC(C)CC(C)C2)c(=O)c2ccccc21 (stereo not drawn)
  0.1, -5, 6, -7, 20034*, 1, 2
> COc1cc(-c2cc(C(=O)Nc3ccc(O)cc3)c3ccccc3n2)cc(OC)c1OC
  0.6, -6, 10, -40, 4488, 8, 14
> COC(=O)Cn1c(=NC(=O)CSC(C)=O)sc2ccccc21
  -14, 1, 0, -1, 5451, 6, 9
> Cc1ccc(NC(=O)C2CC(=O)OC23CCOC(C)(C)C3)cc1 (stereo not drawn)
  0.3, 1, 4, -4, 3932, ., .
> COC(=O)COC(=O)c1ccc(O)cc1
  0.3, 7, 1, -3, 5869, 5, -2
> Nc1nc(N2CCN(Cc3ccccc3)CC2)n[nH]1
  -1.2, 9, -3, -18, 3270, 17, 4
> CC(=O)/C(=N/Nc1ccc(Br)cc1)Sc1cccc2cccnc12
  ., -7, ., -6, 1958, ., .
> CCN1CCN(c2ccc(S(=O)(=O)N3CCCCC3)cc2NC(=O)/C=C/c2ccc(OC)c(OC)c2)CC1
  3.9, -7, 2, -21, 6443, 7, -2
> CCCCn1c(NCc2ccccn2)nc2ccccc21
  3.6, 10, -4, -20, 10826, 7, 15
> CCN1C(=O)c2cccc3cccc1c23
  -1.6, -1, -13, 6, 9936, -5, 5
> O=C(CSc1nnc(CN2CCOCC2)n1-c1ccc(Cl)cc1)Nc1cc(Cl)ccc1O
  1.6, ., -2, -6, 2762, ., .
> Cc1ccc2oc(C(=O)Nc3nnc(C)s3)c(C)c2c1
  9.9, -15, 11, -87, 3282, 5, 3
> Cc1nnc(SCC(=O)Nc2ccc(Cl)cn2)s1
  4.7, 0, 12, 1, 2107, 3, -9
> O=C(CN1CCCC1)Nc1ccc(Br)cc1
  -0.5, -7, 4, -11, 4170, 11, 9
> CCC(C)C1CN=C(N)N1CCc1cc(C(F)(F)F)cc(C(F)(F)F)c1 (stereo not drawn)
  -9.8, ., -6, ., ., 3, 30
> S=C1NC(c2ccccc2)=CC(c2ccccc2)N1 (stereo not drawn)
  -2.2, 6, 3, -11, 3450, -8, -1
> CC(C)CNS(=O)(=O)c1ccc(CCC(=O)NC2CCCCC2)cc1
  2.7, 3, 1, 6, 3071, 16, 9
> Cc1ccc(NC(=O)C(c2ccc(Cl)cc2Cl)N2CCCC2)cc1 (stereo not drawn)
  -5.0, -4, 6, -19, 2119, 6, 19
> CCN1C(=O)C2C(c3ccc(-c4cc(C(C)=O)cs4)cc3)N3CCC[C@@]3(C(=O)OC)C2C1=O (stereo partly drawn)
  3.1, ., 7, ., ., -6, -2
> Cc1ccc(/C(O)=C2/C(=O)C(=O)N(CCN3CCOCC3)C2c2cccs2)cc1 (stereo not drawn)
  0.1, -6, -3, -19, 10158, 9, 17
> O=C(N/N=C/c1cccc([N+](=O)[O-])c1)c1cc2ccccc2o1
  ., 3, ., -11, 2599, ., .
> Cc1cc(NC(=O)CSc2nnc(-c3ccc(O)cc3)o2)no1
  3.9, 2, 3, -10, ?, 7, 5
> Cc1ccc(C)c(NC(=O)C2CC(Cl)=CCC2C(=O)O)c1 (stereo not drawn)
  3.8, -3, 5, 7, 7777, 0, -1
> CCOC(=O)N1CCC(N2Cc3cccc(C(=O)Nc4ccccc4OC)c3C2=O)CC1
  -1.4, 4, 4, -26, 5566, 5, 8
> COc1cccc(CNC(=O)C2CCCN(c3nn4c(=O)cc(C)nc4s3)C2)c1 (stereo not drawn)
  -3.9, ., 3, -10, 2429, 9, 11
> CC1=CCC(C(C)(C)NC(=O)c2ccccc2)CC1=NO (stereo not drawn)
  3.8, ., 3, ., ., 1, 7
> COC(=O)[C@@H]1C[C@H]2CC[C@H](O)C[C@H]2N1Cc1ccc(N2CCN(C)CC2)cc1
  ., 5, ., -9, 4341, ., .
> Cc1ccc(-c2c(C)cc3oc(=O)cc(-c4ccccc4)c3c2C)cc1
  5.1, ., 4, -11, 3869, 11, 1
> C=CCN1CCN(C(c2ccccc2)c2nnnn2CCC(C)C)CC1 (stereo not drawn)
  0.5, 5, 12, -12, 3457, 10, 9
> CCOc1ccccc1Nc1nc(N)nc(CN2CCCCC2C)n1 (stereo not drawn)
  2.1, -21, 3, 2, 3564, 2, -1
> CCOc1cc(C2CC(=O)NC3=C2C(=O)C(C(=O)OC)C(C)C3)cc(Br)c1O (stereo not drawn)
  0.0, 4, 6, -3, 4113, ., .
> CCCCCCCCCCCCN1[C@@H](CC(=O)OC)c2cc(C(F)(F)F)ccc2S1(=O)=O
  ., -4, ., -20, 3864, ., .
> Cc1cc(/C=N/NC(=O)c2c(Br)cnn2C)c(C)n1-c1cccc(Br)c1
  ., -8, ., -12, 2015, ., .
> O=c1[nH]c(=O)c2nc3ccccc3nc2[nH]1
  ., 9, ., -10, 3723, ., .
> Cc1ccc(NC(=O)Cc2nc(CN(C)CC(=O)Nc3ccc(C)cc3)cs2)cc1
  11, ., 1, -10, 4287, -5, 3
> CC(C)n1nc(C(=O)N2CCN(S(=O)(=O)c3cccs3)CC2)c2ccccc2c1=O
  2.4, -8, 7, ., ., 5, 5
> CCOc1ccc(NC(=O)c2c(C)nn(Cc3ccccc3)c2Cl)cc1
  5.5, 4, -2, -42, 9660, 6, 4
> Cc1onc(-c2ccccc2)c1C(=O)ON=C(N)c1ccc([N+](=O)[O-])o1
  8.8, ., 32, ., ., -6, 2
> Cc1cccc(NC(=O)CN2C(=O)N/C(=C/c3cc(C)n(-c4ccncc4)c3C)C2=O)c1
  4.4, 2, 1, -30, 2883, 2, 1
> COc1cccc(CN(CC2CCCO2)S(=O)(=O)c2ccc(S(=O)(=O)N(C)C)cc2)c1 (stereo not drawn)
  2.6, 5, 6, 2, 22709*, 3, 1
> COCCN(C(=O)C(C)N1C(=O)c2ccccc2C1=O)c1c(N)n(CC(C)C)c(=O)[nH]c1=O (stereo not drawn)
  1.6, ., 4, -12, 6067, -1, -3
> O=C(Nc1cccnc1)C1(c2ccccc2)CCCC1
  1.2, 5, -1, -10, 3416, 4, 5
> CCOC(=O)C1=C(C)Nc2ccccc2N=C1NC(=O)Cc1ccc(OC)cc1
  3.7, 0, 15, -19, 2146, 15, 9
> Cc1ccccc1CNC(=O)c1ccc2ccccc2n1
  ., -11, ., -2, 5768, ., .
> O=C(Nc1c2c(nn1-c1ccc([N+](=O)[O-])cc1)CS(=O)(=O)C2)C1CC1
  1.5, 0, 0, -17, 5712, 9, 6
> COc1ccc(-c2[nH]c(-c3ccc(C(=O)O)cc3)nc2-c2ccccc2)cc1
  3.7, 1, 9, -17, 9036, -4, 2
> Cc1ccc(CNc2ccc3c(c2)nc(C)n3C)cc1
  3.7, -4, 2, -50, 4527, 7, 13
> CCSc1nc2ccc(C)cc2cc1C#N
  6.3, 3, 11, -32, 4199, 5, 7
> CC(C)NC(=O)C1(c2ccccc2)CC1(Cl)Cl (stereo not drawn)
  1.8, -7, 4, -34, 2494, 23, 12

Continued.
Below each SMILES – Sa RN4220 lethal, BJeLR viability, Sa ugtP lethal, PrP 5UTR inh, Bead autofluor, Mtb hypoxia inh, Mtb hypoxia inh growth
> CN(C)C(=O)c1ccccc1-c1ccccc1
  6.0, 2, -2, -11, 4749, ., .
> COc1cccc(CN(C)C(=O)c2sccc2-c2ccccc2)c1OC
  8.6, 0, 6, -18, 5527, 2, 6
> COc1ccccc1/C=C/C1NC(=O)NC(C)=C1C(=O)OC(C)C (stereo not drawn)
  0.8, -8, 4, -17, 4529, 1, 16
> CC(C)CN1CCC(=O)N(C(CSc2ccc(Br)cc2)c2ccccc2)CC1 (stereo not drawn)
  5.1, ., 8, ., ., 4, 0
> COc1ccc(NC(=S)NCCN2CCOCC2)cc1
  4.8, 0, 4, -4, 4536, 0, 8
> COc1cc2c(cc1OC)[C@@H](Cc1ccc(OCCC#N)cc1)N(C)CC2
  -2.9, -6, -5, -17, 3356, -3, -4
> CC(=O)N(/N=C/c1cccc(C)c1)c1nc(-c2ccc(Br)cc2)cs1
  ., -2, ., -17, 6890, ., .
> CCC(C)NC(=O)CSc1nc2c(sc3ccccc32)c(=O)n1CCCN1CCOCC1 (stereo not drawn)
  2.5, 3, -4, -5, 9825, -3, 12
> COc1ccc2c(C(=O)CN3CCN(c4ccccc4)CC3)c[nH]c2c1
  4.5, 3, 0, -21, 24933*, 7, 12
> S=c1[nH]nc(C2CCCCC2)n1/N=C/c1ccncc1
  ., -14, ., 12, 2669, ., .
> Cc1ccc(SC(C)C(=O)Nc2ccncc2)cc1 (stereo not drawn)
  9.4, 8, -3, -19, 22693*, 14, 2
> O=C(NNC(=S)NC(=O)c1ccccc1[N+](=O)[O-])c1ccccc1Cl
  19, 5, 5, -19, 2051, 5, 4
> COc1ccc(C=NNc2cc(OC)ncn2)cc1
  2.0, ., 1, ., ., 1, 9
> Cc1cccc(C(=O)OCC(=O)NC2CC2)c1O
  1.7, ., 3, -11, 3619, 7, 8
> CCOc1ccc(S(=O)(=O)N2CCOCC2)cc1NC(=O)CCOc1ccc(C(C)(C)C)cc1
  6.9, ., 4, -17, 6565, 3, 4
> C=CCn1c(CCC(O)COCCC)n[nH]c1=S (stereo not drawn)
  0.8, -27, 1, -5, 3765, 7, -2
> O=C(N/N=C/C=C/c1ccco1)C(O)c1ccccc1 (stereo not drawn)
  ., 5, ., -5, 7626, ., .
> Cc1noc(/C=C/N(C)C)c1S(=O)(=O)N1CCC(C(=O)O)CC1
  26, 4, 17, -14, 7522, -1, 1
> CC(=NNc1cc(C)nc(NCc2ccccc2)n1)c1ccc([N+](=O)[O-])cc1
  -7.4, ., -22, ., ., -14, -7
> CCCN(C(=O)c1cccc(S(=O)(=O)N2CCN(Cc3ccccc3)CC2)c1)C1CCS(=O)(=O)C1 (stereo not drawn)
  -0.9, 1, 1, -6, 4708, 2, 2
> COc1ccccc1NC(=O)COC(=O)/C=C/c1cccs1
  3.4, ., 4, -20, 6115, -4, -4
> CC(C)(C)NC(=O)COC(=O)/C=C/c1ccccc1[N+](=O)[O-]
  3.9, 4, 6, -14, 2864, ., .
> CCN(CC(=O)Nc1ccc2c(c1)OCCO2)S(=O)(=O)c1cccs1
  -1.4, 0, 2, -47, ., ., .
> COc1ccc(-c2nc3ccccc3[nH]2)cc1
  2.1, 35, 5, -25, 8106, 2, 6
> Cc1cc(OC(=O)c2ccco2)c2c(C)cc(=O)oc2c1
  4.1, 0, 7, -17, 8044, -6, 1
> Cc1cccc(OCCC(=O)NCC(c2ccco2)N2CCCCC2)c1 (stereo not drawn)
  4.0, -2, 2, -4, 20481*, 8, 10
> NNc1nc2c(-c3cccc(C(F)(F)F)c3)nnn2c2ccccc12
  -4.6, -1, -2, -13, 4645, 4, -4

Two compounds drawn at random from those above, as already listed:
Below each SMILES – Sa RN4220 lethal, BJeLR viability, Sa ugtP lethal, PrP 5UTR inh, Bead autofluor, Mtb hypoxia inh, Mtb hypoxia inh growth
> S=c1[nH]nc(C2CCCCC2)n1/N=C/c1ccncc1
  ., -14, ., 12, 2669, ., .
> Cc1cc(OC(=O)c2ccco2)c2c(C)cc(=O)oc2c1
  4.1, 0, 7, -17, 8044, -6, 1
